TRPML1 ag – qHTS for Agonists of the Human Mucolipin Transient Receptor Potential 1 (TRPML1); Mucolipin-1 (Homo sapiens), Q9GZU1; TRPML1-expressing cells, Ca2+ dye fluorescence, FDSS; host cell line not named in the record; reference of the full effect not given here; activation, % (test concentration not listed); 410,000 tested, 0.12% active; in the data active = activation above about 50%; inconclusive = about 30% to 50%; inactive = below about 30%; further: 0% is about no effect; the text of the record puts the active cut at 80%
Target sequence (Q9GZU1 whole entry, looked up): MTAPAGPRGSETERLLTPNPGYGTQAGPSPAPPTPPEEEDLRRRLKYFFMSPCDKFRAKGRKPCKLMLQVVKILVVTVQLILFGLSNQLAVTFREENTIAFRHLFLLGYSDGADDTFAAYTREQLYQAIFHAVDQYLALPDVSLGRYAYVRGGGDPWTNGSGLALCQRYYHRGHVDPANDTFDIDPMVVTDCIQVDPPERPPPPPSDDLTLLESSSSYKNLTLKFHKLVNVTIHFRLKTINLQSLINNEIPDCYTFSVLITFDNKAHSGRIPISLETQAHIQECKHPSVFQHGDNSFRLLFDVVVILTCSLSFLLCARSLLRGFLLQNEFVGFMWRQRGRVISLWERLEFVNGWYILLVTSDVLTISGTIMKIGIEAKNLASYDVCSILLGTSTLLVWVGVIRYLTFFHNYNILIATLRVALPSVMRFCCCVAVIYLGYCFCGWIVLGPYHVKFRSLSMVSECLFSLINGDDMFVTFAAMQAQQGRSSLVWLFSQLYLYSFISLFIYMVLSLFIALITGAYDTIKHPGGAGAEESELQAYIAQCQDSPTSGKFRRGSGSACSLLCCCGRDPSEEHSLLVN
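Cells: TRPML1-DL, 1X Tet inducer, ~16 h at 37 degrees C/5% CO2. Dye: ABD Ca8 no-wash + quencher, 45-90 min RT. Read: 10 s baseline, compound add, 110 s agonist phase; 54-4 EC80 (4uM final), 110 s antagonist phase.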
D2 potentiator – Beta-Arrestin HTS for Positive Allosteric Modulators of the Human D2 Dopamine Receptor: Potentiators; D(2) dopamine receptor (Homo sapiens), P14416; DiscoveRx D2 beta-arrestin cells, luminescence, 90 min; 100% = 57 uM dopamine signal; potentiation, % (no concentration beside the values); 360,000 tested, 0.23% active; AID 624464, 2012; active = potentiation of 50% or more; inconclusive = 30% to 50%; inactive = 30% or less;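 further: compound concentration not given in the record; tested on top of an EC20 dose of dopamine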
Target sequence (P14416 whole entry, looked up): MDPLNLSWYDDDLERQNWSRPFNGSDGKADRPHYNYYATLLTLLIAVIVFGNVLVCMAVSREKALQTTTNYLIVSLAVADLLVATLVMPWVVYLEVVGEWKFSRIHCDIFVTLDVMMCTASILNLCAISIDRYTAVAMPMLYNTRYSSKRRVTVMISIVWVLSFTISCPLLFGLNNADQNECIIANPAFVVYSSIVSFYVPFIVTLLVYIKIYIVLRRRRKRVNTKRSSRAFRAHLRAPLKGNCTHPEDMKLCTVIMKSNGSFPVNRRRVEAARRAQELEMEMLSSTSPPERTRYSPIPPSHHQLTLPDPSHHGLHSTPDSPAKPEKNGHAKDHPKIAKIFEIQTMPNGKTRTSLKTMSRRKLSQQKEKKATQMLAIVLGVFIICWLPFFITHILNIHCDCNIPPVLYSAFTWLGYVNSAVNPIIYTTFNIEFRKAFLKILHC
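PathHunter D2 cells, attached overnight at 37 deg C, received compound in DMSO plus dopamine at EC20 (50 nM final) for 90 min at 37 deg C. Beta-arrestin recruitment was read as luminescence after 1 h with detection reagent at ambient temperature.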
Six1-Eya2 blk – qHTS Assay for Inhibitors of the Six1/Eya2 Interaction. Homeobox protein SIX1 (Homo sapiens) + Protein phosphatase EYA2 (Homo sapiens), …. AlphaScreen GST-Six1/His-Eya2 binding, biochemical; active compounds read low; control for the full effect not named in the record. activity change, % (concentration not given with the values). 360,000 tested, 0.56% active; in the data active = activity change below about -65%; inconclusive = about -30% to -65%; inactive = above about -30%; further: on the % scale 0 is the no-effect control and ±100 the full control effect
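Homogeneous AlphaScreen proximity assay pairing GST-Six1 with His-tagged Eya2 (added as 5X mix: 250 nM and 500 nM) in 50 mM Tris pH 8.0, 300 mM NaCl, 1 mM TCEP. Glutathione donor and nickel acceptor beads; 1 h, 37 °C, dark.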
D2 agonist – Beta-Arrestin HTS for Positive Allosteric Modulators of the Human D2 Dopamine Receptor: Agonists; activation, % (test concentration not listed); 360,000 tested, 0.084% active; DiscoveRx PathHunter D2 beta-arrestin, luminescence, 90 min; 100% = 57 uM dopamine signal; D(2) dopamine receptor (Homo sapiens), P14416; in the data active = activation above about 40%; inconclusive = about 15% to 40%; inactive = below about 15%; further: compound concentration not given in the record; the text of the record calls up to 30% inactive
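DiscoveRx PathHunter D2 beta-arrestin cells (2,100/well) attached overnight, then compound-stimulated 90 min at 37 C in HBSS/10 mM HEPES/0.1% Tween-20 buffer; beta-galactosidase complementation read by luminescence after 1 h at ambient temperature. Dopamine 57 uM final (EC100) as control.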
PINK1 modulator – A Quantitative High throughput Screen to Identify Chemical Modulators of PINK1 Expression | 410,000 tested, 0.2% active | PINK1 immunofluorescence, high-content cytometry, 24 h | Potency, µM (top dose mostly 76.6 µM), inactives show at the highest dose activation (PINK1 increase), most hits filed as activators; active = well fitted activation curve with a large enough effect; inconclusive = small, poorly fitted or top-dose-only effect; inactive = flat fitted curve, though single readings scatter; cell line not stated here;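 further: potency means the concentration at half of the fitted maximal effect; % of control where 0% means no effect; nearly all actives have a fitted effect of over 65% in size; a mitochondrial uncoupler was the plate control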
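Stable cell line treated 24 h with compounds at 5 concentrations (CCCP controls), then fixed and immunostained for PINK1 plus nuclear and cell stains; PINK1 immunofluorescence quantified by laser-scanning microplate cytometry.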
CtBP-E1A blk – qHTS Assay for Inhibitors of the CtBP/E1A Interaction; AlphaScreen GST-E1A/His-CtBP binding, 1536-well; active compounds read low; control for the full effect not named in the record; AID 651724, 2012; activity change, % (no concentration beside the values); 340,000 tested, 0.49% active; CtBP / adenovirus E1A interaction (AlphaScreen); in the data active means activity change below about -65%; inconclusive means about -30% to -65%; inactive means above about -30%; further: on the % scale 0 is the no-effect control and ±100 the full control effect
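Steps: dispense buffer (Tris pH 8.0, NaCl 300 mM, TCEP 1 mM, BSA, Tween 20); add 5X protein mix (GST-E1A, His-CtBP, 125 nM each); pin 23 nL compound; 2 h at 37 °C, dark; add 5X beads (50 ug/mL); 1 h; read.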
An asterisk follows results filed as active; ? = inconclusive; / = no result given; & = joins results of further samples; [ ] = remark or other dose.

Every second line gives: TRPML1 ag	D2 potentiator	Six1-Eya2 blk	D2 agonist	PINK1 modulator	CtBP-E1A blk
- O=C(CN1C(=O)c2ccccc2C1=O)NCc1ccc(C(=O)O)cc1
    -0.3	-3.1	10.6	-4.6	0.2%	3.6
- COC(=O)[C@H](CCSC)NC(=O)Cn1ccc(N)nc1=O
    -0.6	-7.7	-17.0	0.5	0.9%	-0.9
- NC(=O)/C(=C\c1ccccc1)NC(=O)c1ccc(NC(=O)c2ccccc2)cc1
    0.7	0.0	0.9	1.8	6.1%	/
- O=C(COC(=O)Cc1cccs1)Nc1ccc(OC(F)(F)F)cc1
    -0.6	-4.0	10.8	-3.3	?	7.1
- O=C(CC1C(=O)NCCN1Cc1ccc(-c2ccccc2)cc1)NCCCn1cccn1 (stereo not given)
    0.0	-11.7	-6.1	-5.1	0.7%	-4.8
- CSc1nc2sc3c(c2c(=O)n1C1CCCCC1)CCN(C)C3
    2.5	-12.6	-1.8	-2.7	-1.6%	-1.2
- Cc1ccc(-n2cnnn2)cc1Cl
    -0.1	-6.1	-0.3	-0.6	-2.0%	20.7
- CC1Cc2ccccc2N1C(=O)c1ccc(Br)o1 (stereo not given)
    4.9	2.9	-12.0	2.6	-2.5%	4.7
- Cc1cc(C)n(CC(=O)N/N=C/c2c[nH]c3ccccc23)n1
    0.2	-8.9	-10.4	0.7	0.7%	4.0
- Cc1ccc(C(=O)Nc2ccc3c4c(cccc24)CC3)cc1[N+](=O)[O-]
    0.6	-23.4	-7.2	-3.4	4.6%	1.1
- Cc1ccc(NC(CC(=O)c2ccccc2)C(=O)O)cc1Cl (stereo not given)
    /	-13.7	-0.2	-3.4	4.6%	-11.7
- COc1cc(CC(=O)OCc2cccc([N+](=O)[O-])c2)cc(OC)c1OC
    1.8	-1.2	0.7	7.4	2.6%	-5.8
- COC(=O)c1cc(=O)n(Cc2ccc(OC)cc2)c(=NCc2ccc(OC)cc2)s1
    -0.2	3.6	3.2	-1.6	8.6%	4.7
- Cc1cccc(N2C(=O)C3CCC(c4ccccc4)CC3C2=O)c1 (stereo not given)
    1.3	-9.7	18.1	-1.4	-0.8%	5.1
- COc1ccc(NC(=O)Nc2ccc(C(=O)N3CCOCC3)cc2)cc1
    0.9	-4.4	1.8	-3.4	-2.8%	6.6
- CCOc1ccc(NS(=O)(=O)c2ccc(NC(=S)NC(C)=O)cc2)cc1
    6.2	-8.1	5.1	-6.8	-1.4%	-0.9
- CCOC(=O)c1c(NC(=O)CNCCOC)sc2c1CCCC2
    0.3	-10.9	-10.8	-1.1	-0.4%	-2.8
- CCN(CC)CCCNc1nc(-n2nc(C)cc2C)nc2sc3c(c12)CC(C)(C)OC3
    0.2	-24.8	0.6	-1.2	0.3%	-11.2
- CCc1cc2c(SC(C)C(=O)NC3CCCC3)ncnc2s1 (stereo not given)
    2.2	-15.6	0.2	-1.9	-0.3%	-3.2
- CC(C)C(=O)Nc1ccc(NC(=O)c2cccnc2)cn1
    0.3	-11.2	-1.3	-0.8	1.7%	-1.9
- CCOc1ccccc1C1C(C#N)=C(N)Oc2cc(C)n(C)c(=O)c21 (stereo not given)
    0.6	-12.7	-1.0	1.1	-2.9%[38.3 µM]	-2.9
- COc1cccc(COC(=O)c2sc3nc4n(c(=O)c3c2C)CCC4)c1OC
    1.9	18.5	2.1	3.9	?	-0.3
- NC(=O)[C@H](Cc1cc2ccccc2s1)NC(=O)[C@@H]1CC2(CC(c3cccc(NC(=O)[C@@H]4CCC(=O)N4)c3)=NO2)CN1C(=O)/C=C/Sc1ccccc1 (stereo not given in full)
    -0.1	-4.0	-24.6	-2.3	0.8%	-12.8
- Cc1ccc(C)c(C(=O)COC(=O)Cn2c(C)csc2=O)c1
    -0.7	-25.2	-2.7	-3.0	1.4%	-2.1
- Cc1ccc(/C(CSc2nccn2-c2ncc(C(F)(F)F)cc2Cl)=N\O)cc1
    0.4	-19.3	-11.4	1.7	-0.1%	-2.8
- COc1cccc(NC(=O)COC(=O)/C=C/c2ccc(Cl)cc2Cl)c1
    0.5	-3.4	-0.4	0.7	-1.7%	-12.6
- Cc1ccc(SCCC(=O)N2CCC(C(N)=O)CC2)cc1
    0.1	6.6	6.2	0.7	1.1%	-1.3
- C=C1C(C(=O)N2CCOCC2)C1C(=O)N1CCOCC1 (stereo not given)
    -0.4	-10.6	2.9	-1.6	/	8.7
- CCOc1ccc2nc(NCCNC(=O)C(C)(C)C)c(C)cc2c1
    0.4	-2.8	7.2	-1.7	-0.3%	3.5
- NCCCSC1=NCCCN1
    -0.1	-5.1	1.9	-1.3	5.7%[38.3 µM]	7.6
- CN(C)C(=O)CSc1nnc(-c2cnccn2)n1C
    0.1	21.9	2.9	2.8	0.0%	0.6
- O=C(Nc1cc2c(oc1=O)CCCC2=O)c1ccccc1
    -0.6	-10.7	3.4	-1.1	2.7%	1.2
- CS(=O)(=O)N1CCC(C(=O)Nc2ccc(F)cc2)CC1
    0.2	-2.4	4.3	-0.8	-1.4%	11.7
- CC(Oc1ccc2oc3ccccc3c2c1)C(=O)NC12CC3CC(CC(C3)C1)C2 (stereo not given)
    -0.1	-11.9	-20.1	-3.0	?	-3.8
- Cc1ccc(-n2c(SCC(=O)NC3CCCCC3)nc3c(c2=O)SCC3)cc1
    -1.0	-2.7	-0.7	-1.4	7.5%	4.3
- CCOc1ccc(C(=O)Nc2ccc3c(c2)OCCO3)cc1OC
    3.2	-6.0	-2.2	-1.7	2.7%[38.3 µM]	-4.0
- Cc1ccccc1CS(=O)(=O)Cc1ccc(C(=O)NCCCN2CCOCC2)o1
    -0.7	-9.5	-17.5	-3.1	-1.7%	-2.0
- Cc1cc(/C=N/NC(=O)c2cccc(N(C)C)c2)c(C)n1-c1cc(C(=O)O)cc(C(=O)O)c1
    1.1	-4.4	-67.5*	0.0	-0.8%	?
- COc1ccccc1C(=O)Nc1ccccn1
    0.6	4.0	1.2	-1.5	7.2%[38.3 µM]	7.9
- CCOc1ccc2nc(NCCNC(=O)C3CC3)c(C)cc2c1
    0.8	-10.1	-1.7	-2.5	-0.6%	-4.7
- CCN(CC)c1ccc(/C=N\N2CCN(Cc3ccc(C)cc3)CC2)cc1
    0.5	-17.1	-65.5*	-0.6	2.1%	?
- CCOC(=O)c1c(C)[nH]c(C(=O)COC(=O)C2=NNC(=O)CC2)c1C
    0.0	2.6	20.5	1.7	-3.3%	6.2
- CCc1c(C(=O)NNC(=S)NCCc2ccccc2)csc1C
    -1.2	-45.8	16.1	-9.2	-3.2%	0.2
- O=S(=O)(Nc1c(F)cccc1F)c1ccc(Cl)nc1
    2.3	-0.3	6.5	-1.4	3.4%	-5.6
- Cn1nc(C(=O)NNC(=O)Cc2ccc(S(=O)(=O)N3CCOCC3)s2)c2ccccc2c1=O
    -0.7	-3.6	-4.5	-2.7	1.8%	/
- CCOC(=O)c1c[nH]c2c(C)ccc(Cl)c2c1=O
    0.7	-28.6	-4.0	1.1	-0.8%	-10.4
- CCOc1ccccc1C(=O)NCC(=O)N1CCN(Cc2ccc3c(c2)OCO3)CC1
    1.2	-2.8	-2.1	0.4	2.3%	6.0
- COc1ccc(N2CCN(C(=O)c3cc4c(s3)-c3ccccc3OC4)CC2)cc1
    0.0&-0.9	-7.2	-9.8	-2.7	1.7%&-1.1%	-24.5
- CCN1CCN(S(=O)(=O)c2ccc(S(=O)(=O)NC3CC3)cc2)CC1
    0.7	-6.3	1.9	-5.5	1.1%	1.1
- Cc1ccc(NC(=O)Nc2ccon2)cc1Cl
    0.0	-2.5	0.2	3.6	0.6%	-0.4
- O=C(NNC(=S)Nc1ccccc1)C1CCCCC1
    1.3	-18.5	3.4	-6.5	1.7%	-6.9
- Cc1c(C#N)c(N)nc2c3c(sc12)NC(=O)CC3c1ccccc1 (stereo not given)
    1.7	-13.1	-0.3	2.4	?	8.9
- CCN1CCN(C(=O)Cn2nc(C)n3c(cc4c(OC)cccc43)c2=O)CC1
    0.7	-0.4	-0.3	9.8	1.0%	/
- CC1CCCN(c2ccc(C(=O)NCC3CCCO3)cn2)C1 (stereo not given)
    0.1	-6.6	2.1	-1.2	?	7.6
- CCCCc1ccc(NC(=S)NN2CCOCC2)cc1
    1.6	-2.3	2.5	3.7	2.2%	0.6
- Cc1cc(C=C2C(=O)c3ccccc3C2=O)c(C)n1C
    1.0	-1.4	-0.1	-2.3	0.3%	-2.4
- Cc1ccc(S(=O)(=O)N2CCN(C(=O)CCN3C(=O)c4ccccc4C3=O)CC2)cc1C
    0.1	-4.0	-2.7	-7.1	-1.8%	?
- Cc1ccccc1C(=O)N/N=C1\SCC(=O)N1Cc1ccco1
    1.4	2.6	7.2	-1.5	-0.1%	7.5
- OCCC#Cc1ccc(N2C(c3ccsc3)=Cc3ccc(F)cc3C2c2c[nH]c3ccccc23)cc1 (stereo not given)
    -0.3	/	-7.5	/	5.9%	2.6
- Cc1cc(C)c(C)c(OC(=O)c2sc(Cl)nc2C)c1
    0.7	17.4	12.6	2.5	-2.3%	10.3

Arranged by SMILES length (ascending): 3 of the compounds above.
Every second line gives: TRPML1 ag	D2 potentiator	Six1-Eya2 blk	D2 agonist	PINK1 modulator	CtBP-E1A blk
- CC1Cc2ccccc2N1C(=O)c1ccc(Br)o1 (stereo not given)
    4.9	2.9	-12.0	2.6	-2.5%	4.7
- C=C1C(C(=O)N2CCOCC2)C1C(=O)N1CCOCC1 (stereo not given)
    -0.4	-10.6	2.9	-1.6	/	8.7
- CCN1CCN(C(=O)Cn2nc(C)n3c(cc4c(OC)cccc43)c2=O)CC1
    0.7	-0.4	-0.3	9.8	1.0%	/

Source: PubChem BioAssay (National Center for Advancing Translational Sciences (NCATS))
